Screening results as filed in PubChem BioAssay.
PK Bst: pyruvate kinase (B. stearothermophilus) modulation; 1.2% of 51,000 active; partly purified Bacillus stearothermophilus pyruvate kinase, luminescence ATP production; ribose 5-phosphate activator present at AC10; Potency, µM; AID 361; in the data active means potency below about 11 µM; inconclusive means mostly about 12 µM to 25 µM; inactive means weaker than that;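 the screen sought inhibitors and activators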;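 further: potency means the concentration at half of the fitted maximal effect; scaled between full activation by ribose 5 phosphate and full inhibition by luteolin; about four in five hits inhibit and the cells do not say which; series up to 57 µM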
TsaE inh: inhibitors of E. coli YjeE (TsaE) | Potency, µM | 0.05% of 71,000 active | AID 605 | P0AF67 | purified YjeE, fluorescence polarisation of a bound ADP probe; active = well fitted falling curve; inconclusive = weaker or top-dose-only fall, or a rising curve; inactive = flat or poorly fitted curve;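 further: top concentration of the series not given in the record; excess ADP was the control for the full effect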
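Fluorescence polarization of a BODIPY Texas Red–ADP probe (2 uM) bound to purified YjeE (10 uM) was read after 15 min room-temperature incubation with compounds. Loss of polarization marks inhibitors; ADP serves as titrated control.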
Numbers without * were called inactive; i = inactive; ? = inconclusive; nt = no result given.

SMILES	PK Bst	TsaE inh
Cc1cc(C)n2nc(SCC(=O)NCc3ccco3)nc2n1	>57	i
COc1ccc2oc(C(=O)CCC(=O)O)c(N)c2c1	nt	i
CCCN1C2CCCC1CC(NC(=O)c1ccccc1)C2 (stereo not given)	>57	i
Cn1nc(CC(=O)Nc2ncc(Br)s2)c2ccccc2c1=O	>57	i
Cc1ccccc1NC(=O)CNc1ccccc1N1CCCCC1	>57	i
COc1ccc(Cn2cccc(NC(=O)Nc3ccc(C#N)cc3)c2=O)cc1	>57	i
O=C(NCc1ccc(F)cc1)C(c1cccs1)N(C(=O)c1csnn1)C1CC1 (stereo not given)	>57	i
CCOC(=O)CNc1nc(C(C)(C)C)nc2c1nnn2Cc1ccccc1Cl	>57	i
CCOC(=O)CSc1nnc(CNC(=O)c2ccco2)n1-c1ccc(F)cc1	>57	i
CCOc1ccccc1N(CC(=O)N1CCOCC1)S(=O)(=O)c1ccccc1	>57	i
COc1cc2c(cc1OC)C1(CCCC1)CNC2C (stereo not given)	>57	i
CC(C)C[C@@H](CC(=O)N[C@H](CC(=O)N[C@@H]1CCCC[C@H]1C(=O)N[C@H](CC(=O)N[C@@H](CCC(=O)O)CC(=O)O)Cc1c[nH]c2ccccc12)C(C)C)NC(=O)[C@@H]1CCCC[C@H]1N	nt	i
Cc1ccccc1-c1cc(N2CCN(C)CC2)ncn1	nt	i
CCCCCOC(=O)Cn1c(SCC(=O)Nc2ccccc2)nc2c1c(=O)[nH]c(=O)n2C	>57	i
O=C(OCCNC(=O)c1ccc2ccccc2n1)c1cccnc1	nt	i
CCOCCCNCC(=O)Nc1ccccc1N1CCOCC1	>57	i
CC(C)(C)c1ccccc1NC(=O)c1ccco1	>57	i
O=C(COC(=O)C1CC(=O)N(c2ccc3c(c2)OCCO3)C1)Nc1ccc2c(c1)CCC2 (stereo not given)	>57	i
COc1ccc(C(=O)CSc2nnc(-c3ccccn3)n2Cc2ccco2)cc1	>57	i
O=C(c1cccc(F)c1)N1CCC2(CCCN(Cc3nccs3)C2)CC1	nt	i
Cc1ccc(-c2cc(-c3ccc(F)cc3)nc(N)c2C#N)o1	>57	i
CCCn1c(CNC(=O)Cc2ccccc2)nc2ccccc21	>57	i
Cc1ccccc1Cc1c(C)nc2nc(SCC(=O)NCc3ccco3)nn2c1C	>57	i
O=C(CSc1ncnc2nc[nH]c12)N1CCN(c2ccc(Cl)cc2)CC1	>57	i
CC1=C(C(=O)OC(C)C)C(c2ccc(F)cc2)NC(=O)N1 (stereo not given)	>57	i
COc1ccc(CN=CC2=C(O)CNC2=O)cc1OC	nt	i
CC(=O)N1CCc2cc(C(=O)CN3CCC(C)CC3)ccc21	nt	i
Cc1ccc(CCNC(=O)C2CCN(C(=O)N(C)C)CC2)cc1	>57	i
C=CCOC(=O)C1=C(C)OC(N)=C(C#N)C1c1ccoc1 (stereo not given)	>25.6	nt
CCOC(=O)C1C(c2ccccc2Cl)NC(=O)N(C)C1(O)C(F)(F)F (stereo not given)	>57	i
COc1ccc(-c2c3c(=O)n(C)c(=O)n(C)c3cn2-c2cccc(OC)c2)cc1	>57	i
COc1ccc(C(=O)N2CCC3(CCCN(Cc4cc(C(F)(F)F)cc(C(F)(F)F)c4)C3)CC2)cc1	nt	i
Cc1ccc(CNC(=O)C2C3C=CC(C3)C2C(=O)O)cc1 (stereo not given)	>57	i
COc1cccc(C(=O)NCc2cn3ccsc3n2)c1	nt	i
Cc1cccc2c1Oc1ccccc1[C@@H]2NC(=O)c1ccc([N+](=O)[O-])cc1	nt	i
CC(C)Oc1ccc2c(=O)c(-c3ccccc3)coc2c1	i	nt
CCc1ccc(O)c(N=Cc2cccc(C)c2O)c1	nt	i
c1ccc(OCCCc2nc(-c3ccccn3)no2)cc1	>57	i
CCC1(C)Cc2c(C#N)c(N)n(-c3ccccc3)c(=O)c2CO1 (stereo not given)	>57	i
COCCN1C(=O)C(=O)/C(=C(/O)c2ccc3c(c2)OCCO3)C1c1ccc(C(=O)OC)cc1 (stereo not given)	>57	i
N#CCCn1c(=O)c(-c2ccc(Cl)cc2)nc2cnc(Oc3cccc(Cl)c3)nc21	nt	i
COC(=O)c1cccc(Nc2cc(C)nc(-c3ccccc3O)n2)c1	>25.6	nt
O=C(CCCOc1ccccc1)N1CCN(c2ccccn2)CC1	nt	i
N#CCSc1nc2ccccc2c(=O)n1-c1ccccc1	>57	i
CCN(CC)CCn1c(=N)n(CCO)c2ccccc21	nt	i
Cc1cc(N2CCCC2=O)cc(C)c1CN1C(=O)c2ccccc2C1=O	>57	i
O=C(NCc1ccco1)c1cc(S(=O)(=O)N2CCOCC2)ccc1Cl	nt	i
COc1c(F)c(F)c(C(=O)Nc2cccc(Cl)c2N2CCOCC2)c(F)c1F	>57	i
CN1CCN(C(=O)c2cnn(-c3ccccc3)c2NC(=O)c2cccs2)CC1	>57	i
Cc1nc(CC(=O)Nc2nc(-c3ccccc3)cs2)cs1	>11.4	i
O=C(CCSCCc1ccccn1)Nc1nccs1	nt	i
CS(=O)(=O)Nc1ccc(C(=O)NCc2ccco2)cc1	>57	i
CC(C)CC1(C(=O)NCCN2CCOCC2)C=CCN1C(=O)c1ccccc1 (stereo not given)	nt	i
CN(C)CCCNCCCNC(=O)c1ccccn1	>57	i
O=C1c2cccc3cccc(c23)C(=O)N1c1nccs1	nt	i
COc1ccc(CCNc2oc(Cc3ccccc3)nc2C#N)cc1OC	>57	i
CCCSc1nnc2[nH]c(=O)cc(N)n12	>57	i
CS(=O)(=O)Nc1cccc(-c2nccc(NCc3cccs3)n2)c1	nt	i
c1cn2cc(CN3CCOCC3)nc2s1	>57	i
C/C(=C\C(=O)c1ccc(C)o1)Nc1ccc2c(c1)OCO2	nt	i

Going on with the list.
SMILES	PK Bst	TsaE inh
O=C(CSc1nnc(-c2ccccn2)n1Cc1ccco1)c1ccc(-c2ccccc2)cc1	>57	i
O=C(CCCCCn1c(=O)[nH]c2ccccc2c1=O)NCCCN1CCN(c2ccccc2F)CC1	>57	i
CCOc1ccc(N2C(=O)c3cccnc3C2Nc2ccc(OC)cc2)cc1 (stereo not given)	>57	i
COc1ccc(-n2c(=O)c3ccccc3n(CC(=O)NC3CCCC3)c2=O)c(OC)c1	>57	i
COc1ccc(NC(=O)c2oc3ccccc3c2NC(=O)c2ccco2)cc1	?	i
O=c1oc2ccccc2cc1C1=Nn2c(nnc2-c2cccnc2)SC1	>57	i
COc1ccc(CN(C(=O)c2ccccc2OC)C2CCS(=O)(=O)C2)cc1 (stereo not given)	>57	i
CCn1c(SCC(=O)c2ccc(Cl)s2)nnc1-c1cccs1	>57	i
CCCC(=O)Nc1ccc(N2CCCCC2)cc1	nt	i
N[C@@H](CSC(=O)c1ccccc1)C(=O)O	nt	i
O=C1NC(=O)C2(COC3(CCCC3)OC2)S1	>57	i
COc1ccccc1CN1CC[C@@]2(CCCN(C(=O)c3ccco3)C2)C1	nt	i
Cc1onc(-c2ccccc2)c1C(=O)Nc1ccc2c(c1)OCCO2	nt	i
N#Cc1c2c(c(-c3ccccc3)[nH]c1=O)CCCC2	>25.6	nt
O=C(NC1CC2CCCC(C1)N2S(=O)(=O)c1ccccc1)c1ccccc1 (stereo not given)	>57	i
COc1cccc2c1C(=O)c1c(O)c3c(c(O)c1C2=O)C[C@@](O)(C(=O)CO)C[C@@H]3O[C@H]1C[C@H](N)[C@H](O)[C@H](C)O1	>25.6	nt
Cc1cc(NC(=O)CSc2nccn2-c2ccc(Cl)cc2)no1	>57	i
CCCC(C)n1[nH]c(=O)cc1N (stereo not given)	>25.6	nt
CCOC(=O)c1sc(NC(=O)CCSC)nc1C	nt	i
CN(C#N)c1nc(N2CCOCC2)nc(N2CCOCC2)n1	>57	i

4 structures already listed, arranged by heavy-atom count, lowest first:
SMILES	PK Bst	TsaE inh
CCCC(=O)Nc1ccc(N2CCCCC2)cc1	nt	i
CCn1c(SCC(=O)c2ccc(Cl)s2)nnc1-c1cccs1	>57	i
COc1ccc(NC(=O)c2oc3ccccc3c2NC(=O)c2ccco2)cc1	?	i
COc1ccc(-n2c(=O)c3ccccc3n(CC(=O)NC3CCCC3)c2=O)c(OC)c1	>57	i

In the list so far, eight contain a Cl atom:
SMILES	PK Bst	TsaE inh
CCOC(=O)CNc1nc(C(C)(C)C)nc2c1nnn2Cc1ccccc1Cl	>57	i
O=C(CSc1ncnc2nc[nH]c12)N1CCN(c2ccc(Cl)cc2)CC1	>57	i
CCOC(=O)C1C(c2ccccc2Cl)NC(=O)N(C)C1(O)C(F)(F)F (stereo not given)	>57	i
N#CCCn1c(=O)c(-c2ccc(Cl)cc2)nc2cnc(Oc3cccc(Cl)c3)nc21	nt	i
O=C(NCc1ccco1)c1cc(S(=O)(=O)N2CCOCC2)ccc1Cl	nt	i
COc1c(F)c(F)c(C(=O)Nc2cccc(Cl)c2N2CCOCC2)c(F)c1F	>57	i
CCn1c(SCC(=O)c2ccc(Cl)s2)nnc1-c1cccs1	>57	i
Cc1cc(NC(=O)CSc2nccn2-c2ccc(Cl)cc2)no1	>57	i

(further entries)
SMILES	PK Bst	TsaE inh
O=C(NCCCN1CCC(Cc2ccccc2)CC1)C1CC(=O)N(C2CCCC2)C1 (stereo not given)	nt	i
O=C(Nc1ccc(Cl)cc1)c1ccc2c(c1)OCO2	nt	i
CCCc1[nH]nc2c1C(c1ccc(OC(=O)N3CCOCC3)c(OC)c1)C(C#N)=C(N)O2 (stereo not given)	>57	i
CCn1c(SCc2nc3ccccc3nc2C)nnc1-c1cccs1	>57	i
c1ccc(-c2ccc(N3CC4(CCNCC4)C3)cc2)cc1	nt	i
O=C(COC(=O)C12CC3CC(CC(O)(C3)C1)C2)N1CCN(S(=O)(=O)c2ccc(Cl)cc2)CC1	>57	i
CCOC(=O)c1c(C)n(C)c2ccc(OCC(O)Cn3nc(C)cc3C)cc12 (stereo not given)	>57	i
Cc1ccc(NC(=O)NC(=O)N(c2ccccc2)S(C)(=O)=O)cc1	>57	i
COC(=O)C1CCN(C(=O)CN2C(=O)NC(CCc3ccccc3)C2=O)CC1 (stereo not given)	>57	i
CCOc1cc(C(=O)Nc2cnccn2)cc(OCC)c1OCC	>57	i
N#Cc1cc2c(=O)n3ccccc3nc2n(CCCN2CCOCC2)c1=O	>57	i
COC(=O)CCC(=O)Nc1ccc(OC)cc1	nt	i
O=C(NC1CC1)c1ccc(-c2nc3ccccc3s2)s1	0.799*	i
CCOC(=O)C(C(=O)Nc1ccccc1)C1CCCCC1 (stereo not given)	nt	i
CC(=O)c1cccc(-n2c(CCC(=O)O)ccc2-c2cccs2)c1	>57	i
CC(=O)Oc1ccccc1C1OCCN1C(C)=O (stereo not given)	>11.4	nt
Cn1c(=O)c2c(nc(CN3CCOCC3)n2CCCc2ccccc2)n(C)c1=O	>57	i
O=C1C2C3C=CC(C3)C2C(=O)N1Cc1cccnc1 (stereo not given)	>57	i
COc1ccccc1-c1cc(NCc2cccs2)ncn1	nt	i
CCCn1c(=O)c2ccccc2n2c(SCc3c(C(=O)OCC)oc4ccccc34)nnc12	>57	i
O=c1[nH]cc(F)c(=O)[nH]1	nt	i
OCCOCCNc1ncnc2c1cnn2-c1ccccc1	>25.6	nt
COc1ccc(CC(NC(C)=O)C(=O)NC2CCN(C(=O)NCc3ccccc3)CC2)cc1 (stereo not given)	>57	i
COc1ccc2nc(NCc3ccccc3)[nH]c2c1	nt	i
CC(C)(C)SCCNS(=O)(=O)c1ccccc1	nt	i
O=C(O)c1[nH]c(=O)[nH]c(=O)c1CN1CCCCC1	nt	i
Cc1ccc(S(=O)(=O)NCC(=O)N(CC(=O)NCC2CCCO2)Cc2ccccc2)cc1 (stereo not given)	>57	i
Cc1ccc2nc(Nc3ncc4c(n3)CCCC4=O)nc(C)c2c1	>57	i
COc1ccc2cc(C(c3nnnn3CCc3ccccc3)N3CCCC(C)C3)c(=O)[nH]c2c1 (stereo not given)	>57	i
COc1ccccc1NC(=O)NC1(C(=O)N2CCC(O)CC2)CCCCC1	>57	i
Cc1ccccc1NC(=O)c1cccc2nccnc12	nt	i
COc1cccc(OC)c1C(=O)Nc1nnc(C(C)C)s1	nt	i
O=C(CCCn1c(=S)[nH]c2cc3c(cc2c1=O)OCO3)N1CCN(c2ccccn2)CC1	>57	i
COC(=O)c1cccc(S(=O)(=O)N2CCCCC2)c1	nt	i
Cc1ccc(Cn2cnc3c(nnn3Cc3ccc(Cl)cc3)c2=O)cc1	>57	i
O=C(CSc1nnc(-c2ccncc2)n1-c1ccc(Cl)cc1)N1CCOCC1	>57	i
Cc1c(NC(=O)c2ccc(Br)o2)c(=O)n(-c2ccccc2)n1C	nt	i
C=CCOc1cccc(C2C(C(=O)c3ccco3)=C(O)C(=O)N2CCN(CC)CC)c1 (stereo not given)	>57	i
COc1ccc2[nH]cc(CCNc3cc(-c4ccc(C(=O)N(C)C)cc4)ncn3)c2c1	nt	i
O=C(Cn1cc2c(n1)CCCC2)NCC1CCCO1 (stereo not given)	nt	i
Cc1ccccc1C1CC(c2ccccc2OC(F)F)Nc2ncnn21 (stereo not given)	>57	i
CCCCc1ccc2nc(NC(=O)OC)[nH]c2c1	nt	i
Cc1ccccc1-c1nc(N(C)Cc2ccco2)c2ccccc2n1	nt	i
O=C(CCS(=O)(=O)c1cccc2nsnc12)NCc1ccccc1	>57	i
COc1ccc(C2C(C(=O)c3cc4cccc(OC)c4o3)=C(O)C(=O)N2CCCN(C)C)cc1OC (stereo not given)	>57	i
CC(C)N1CC(C(=O)Nc2ccc(Br)c(Cl)c2)CC1=O (stereo not given)	i	i
Cc1c(Cc2ccccc2)c(=O)oc2cc(OCc3nn[nH]n3)ccc12	>57	i

Only part of the results is shown (hit frequency here may not be typical).
